Source: PubChem BioAssay
A1 apoptosis 2 – A1 inhibitors via caspase activation, primary screen, cell-based, luminescence, HTS, two replicates; MEF A1-2A-BIM cells, caspase-Glo luminescence, 3 h; percent of clofoctol response, DMSO zero; caspase activation, % (test concentration not listed); 24,000 tested, under 10 active; AID 2465, 2010; in the data active = caspase activation above about 5.9%;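 note: wells of about 30 µL received 50 nL stock; the first replicate is given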
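Evaluation: Caspase-3/7 activity from luminescence increase | Assay system: A1-2A-BIM mouse embryonic fibroblasts | Quantity: 2500 MEF cells/well | Medium: RPMI-1640 plus 10% FBS | Detection: Caspase-Glo 3/7 luminescence, 1 h at room temperature | Dosing: 50 nL compound per well, pinned | Timing: Cells settled overnight, compound exposure 3 h at 37 °C, 5% CO2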
An asterisk follows results filed as active. The list is partial. The share of hits here may be higher or lower than overall.

SMILES | A1 apoptosis 2
Cc1ccc(S(=O)(=O)Nc2ccc3c(c2)C(=O)N([C@@H](C)CO)C[C@@H](C)[C@@H](CN(C)C(=O)Nc2cccc4ccccc24)OCCCC[C@@H](C)O3)cc1 | -0.7
C[C@@H]1CN([C@H](C)CO)C(=O)CCCn2nncc2CO[C@@H]1CN(C)S(=O)(=O)c1ccc(Cl)cc1 | -0.3
COC(=O)CCCCCCC(=O)N/N=C/c1ccc(O)c(OC)c1 | -1.0
O=C(NO)c1ccc(C(=O)N/N=C/c2ccc3c(c2)OCCO3)cc1 | -5.7
COc1ccc(NC(=O)N(C)C[C@H]2Oc3ccc(NS(=O)(=O)c4ccccc4)cc3CC(=O)N([C@H](C)CO)C[C@@H]2C)cc1 | 0.3
Cc1noc(C)c1S(=O)(=O)Nc1ccc2c(c1)C(=O)N([C@@H](C)CO)C[C@@H](C)[C@@H](CN(C)Cc1ccccc1)OCCCC[C@H](C)O2 | -0.3
C[C@@H]1CCCCO[C@@H](CN(C)S(=O)(=O)c2ccc(F)cc2)[C@@H](C)CN([C@H](C)CO)C(=O)c2cc(NC(=O)C3CCCCC3)ccc2O1 | 0.0
C[C@H](CO)N1C[C@H](C)[C@@H](CN(C)Cc2ccccc2)Oc2ccc(N(C)C)cc2CC1=O | -0.5
C[C@@H]1CN([C@@H](C)CO)C(=O)c2cc(NS(=O)(=O)c3cn(C)cn3)ccc2O[C@@H]1CN(C)Cc1ccccc1 | -0.2
C[C@H](CO)N1C[C@H](C)[C@H](CN(C)C(=O)Nc2ccc3c(c2)OCO3)Oc2ccc(NS(=O)(=O)c3ccccc3)cc2CC1=O | -0.1

Given field by field: entries from further up.
> C[C@@H]1CN([C@H](C)CO)C(=O)CCCn2nncc2CO[C@@H]1CN(C)S(=O)(=O)c1ccc(Cl)cc1
  A1 apoptosis 2: -0.3
> Cc1ccc(S(=O)(=O)Nc2ccc3c(c2)C(=O)N([C@@H](C)CO)C[C@@H](C)[C@@H](CN(C)C(=O)Nc2cccc4ccccc24)OCCCC[C@@H](C)O3)cc1
  A1 apoptosis 2: -0.7
> O=C(NO)c1ccc(C(=O)N/N=C/c2ccc3c(c2)OCCO3)cc1
  A1 apoptosis 2: -5.7
> C[C@H](CO)N1C[C@H](C)[C@@H](CN(C)Cc2ccccc2)Oc2ccc(N(C)C)cc2CC1=O
  A1 apoptosis 2: -0.5

(list continues)
SMILES | A1 apoptosis 2
C[C@@H]1CN([C@H](C)CO)C(=O)c2cc(NC(=O)CCN3CCOCC3)ccc2O[C@@H]1CN(C)S(C)(=O)=O | 0.2
COc1ccc(S(=O)(=O)Nc2cccc3c2O[C@@H](CN(C)Cc2ccc4c(c2)OCO4)[C@@H](C)CN([C@@H](C)CO)C3=O)cc1 | -0.2
COc1ccc(NC(=O)Nc2ccc3c(c2)C(=O)N([C@H](C)CO)C[C@@H](C)[C@H](CN(C)S(=O)(=O)c2cccs2)O3)cc1 | -0.1
COc1ccc(NC(=O)Nc2ccc3c(c2)C(=O)N([C@H](C)CO)C[C@H](C)[C@H](CN(C)C(=O)Nc2ccc(F)cc2)O3)cc1 | -0.4
C[C@H](CO)N1C[C@H](C)[C@H](CN(C)Cc2ccccc2)OCCCC[C@H](C)Oc2ccc(NC(=O)c3ccccc3)cc2C1=O | 0.1
Cc1noc(C)c1NC(=O)Nc1cccc2c1O[C@H](CN(C)CC1CC1)[C@@H](C)CN([C@@H](C)CO)C2=O | 1.7
COc1ccc(S(=O)(=O)N(C)C[C@H]2Oc3c(NC(=O)Nc4ccccc4)cccc3C(=O)N([C@H](C)CO)C[C@@H]2C)cc1 | -1.9
COc1ccc(S(=O)(=O)Nc2ccc3c(c2)CC(=O)N([C@H](C)CO)C[C@H](C)[C@@H](CN(C)C(=O)NC2CCCCC2)O3)cc1 | 0.5
C[C@@H]1CN([C@@H](C)CO)C(=O)Cc2cc(NC(=O)CCC(F)(F)F)ccc2O[C@@H]1CN(C)C(=O)Nc1ccccc1 | 0.2
C[C@@H]1CN([C@H](C)CO)C(=O)c2cccc(NS(=O)(=O)c3cn(C)cn3)c2O[C@H]1CN(C)Cc1ccc(Cl)c(Cl)c1 | -2.1
C[C@@H]1CCCCO[C@@H](CN(C)S(=O)(=O)c2cccs2)[C@H](C)CN([C@H](C)CO)C(=O)c2cc(NS(C)(=O)=O)ccc2O1 | 0.7
C[C@H]1CN([C@@H](C)CO)C(=O)c2cccc(NS(=O)(=O)c3ccccc3)c2O[C@@H]1CN(C)S(=O)(=O)c1cccs1 | -1.8
COc1ccc(S(=O)(=O)Nc2ccc3c(c2)C(=O)N([C@H](C)CO)C[C@H](C)[C@@H](CN(C)CC2CC2)O3)cc1 | -0.3
C[C@@H]1CCCCO[C@@H](CN(C)C(=O)Nc2ccccc2)[C@@H](C)CN([C@@H](C)CO)C(=O)c2cc(N(C)C)ccc2O1 | -0.1
C[C@@H]1CN([C@@H](C)CO)C(=O)Cc2cc(NC(=O)Nc3ccc4c(c3)OCO4)ccc2O[C@H]1CN(C)CC1CC1 | 2.1
COc1ccc(NC(=O)N(C)C[C@@H]2Oc3c(NS(=O)(=O)c4ccc(F)cc4)cccc3C(=O)N([C@H](C)CO)C[C@H]2C)cc1 | 0.5
C[C@H](CO)N1C[C@H](C)[C@H](CN(C)Cc2ccc(C(=O)O)cc2)Oc2c(NC(=O)Nc3cccc4ccccc34)cccc2C1=O | -1.0
C[C@@H]1CCCCO[C@H](CN(C)S(=O)(=O)c2ccccc2)[C@@H](C)CN([C@H](C)CO)C(=O)c2cc(NC(=O)c3ccccc3)ccc2O1 | -0.3
COc1ccc(NC(=O)Nc2ccc3c(c2)C(=O)N([C@H](C)CO)C[C@H](C)[C@@H](CN(C)Cc2ccc(C(F)(F)F)cc2)O3)cc1 | 0.3
C[C@@H]1CN([C@@H](C)CO)C(=O)CCCn2cc(nn2)CO[C@H]1CN(C)C(=O)Nc1ccc(-c2cccs2)cc1 | -0.2
COc1ccc(NC(=O)N(C)C[C@@H]2Oc3ncc(/C=C/c4ccccc4)cc3C(=O)N([C@H](C)CO)C[C@@H]2C)cc1 | 0.1
C[C@@H]1CN([C@@H](C)CO)C(=O)c2cc(NC(=O)Nc3ccc4c(c3)OCO4)ccc2O[C@H]1CN(C)C | 0.7
COc1ccccc1CN(C)C[C@@H]1OCc2cn(nn2)CCCC(=O)N([C@@H](C)CO)C[C@H]1C | 0.0
C[C@H](CO)N1C[C@H](C)[C@@H](CN(C)S(=O)(=O)c2ccccc2)Oc2ccc(NC(=O)NC3CCCCC3)cc2C1=O | -0.6
C[C@H]1CN([C@@H](C)CO)C(=O)c2cc(NS(=O)(=O)c3ccc(F)cc3)ccc2O[C@H]1CN(C)S(=O)(=O)c1ccccc1 | 0.5
Cc1ccc(S(=O)(=O)N(C)C[C@@H]2OCCCC[C@@H](C)Oc3ccc(N(C)C)cc3C(=O)N([C@@H](C)CO)C[C@H]2C)cc1 | -0.4
O=C(C1=C[C@H](C2CC2)C[C@H](OCc2ccc(CO)cc2)O1)N1CCOCC1 | 0.9
C[C@H](CO)N1C[C@H](C)[C@@H](CN(C)C(=O)Nc2ccc(C(F)(F)F)cc2)Oc2ccc(N(C)C)cc2C1=O | -0.6
COc1ccc(S(=O)(=O)Nc2ccc3c(c2)C(=O)N([C@H](C)CO)C[C@H](C)[C@@H](CN(C)Cc2ccc(Cl)c(Cl)c2)OCCCC[C@@H](C)O3)cc1 | -1.0
COc1ccc(S(=O)(=O)N(C)C[C@H]2Oc3ccc(NC(=O)CCC(F)(F)F)cc3C(=O)N([C@H](C)CO)C[C@H]2C)cc1 | -0.1
C[C@@H]1CN([C@H](C)CO)C(=O)Cc2cc(NC(=O)Nc3ccc(F)cc3)ccc2O[C@H]1CN(C)C(=O)NC1CCCCC1 | -0.5
COc1ccc(S(=O)(=O)Nc2ccc3c(c2)C(=O)N([C@@H](C)CO)C[C@@H](C)[C@H](CN(C)Cc2ccncc2)O3)cc1 | -0.1
C[C@H]1CN([C@@H](C)CO)C(=O)c2cccc(NC(=O)Nc3ccccc3)c2O[C@H]1CN(C)S(=O)(=O)c1ccccc1 | -1.3
COc1ccc(S(=O)(=O)Nc2ccc3c(c2)C(=O)N([C@H](C)CO)C[C@@H](C)[C@H](CN(C)C(=O)CCC(F)(F)F)OCCCC[C@@H](C)O3)cc1 | -0.9
C[C@H](CO)N1C[C@H](C)[C@H](CN(C)C(=O)NC2CCCCC2)Oc2ccc(NC(=O)Cn3cnnn3)cc2C1=O | 0.7
CC(C)NC(=O)N(C)C[C@H]1Oc2ccc(NS(=O)(=O)c3ccccc3)cc2CC(=O)N([C@@H](C)CO)C[C@H]1C | 0.6
C[C@H](CO)N1C[C@H](C)[C@H](CN(C)Cc2ccc(C(=O)Nc3ccccc3N)cc2)Oc2c(NS(=O)(=O)c3cn(C)cn3)cccc2C1=O | 1.5
Cc1noc(C)c1S(=O)(=O)Nc1ccc2c(c1)CC(=O)N([C@@H](C)CO)C[C@H](C)[C@@H](CN(C)C(=O)NC1CCCCC1)O2 | -0.3
C[C@H](CO)N1C[C@H](C)[C@@H](CN(C)S(=O)(=O)c2cn(C)cn2)Oc2ccc(NC(=O)Nc3ccc4c(c3)OCO4)cc2C1=O | -0.5
Cc1noc(C)c1NC(=O)N(C)C[C@@H]1Oc2ccc(NC(=O)Nc3ccc(F)cc3)cc2C(=O)N([C@@H](C)CO)C[C@@H]1C | 0.3
C[C@@H]1CN([C@H](C)CO)C(=O)CCCn2nncc2CO[C@H]1CN(C)Cc1ccc2c(c1)OCCN2C | -2.0
C[C@H]1CN([C@@H](C)CO)C(=O)Cc2cc(NS(=O)(=O)c3cn(C)cn3)ccc2O[C@@H]1CN(C)Cc1ccc(C(F)(F)F)cc1 | 0.8
CNC[C@@H]1Oc2ccc(NC(=O)NC(C)C)cc2CC(=O)N([C@@H](C)CO)C[C@@H]1C | 2.1
Cc1noc(C)c1S(=O)(=O)N(C)C[C@@H]1OCc2cnnn2CCCC(=O)N([C@H](C)CO)C[C@@H]1C | -1.4
C[C@H](CO)N1C[C@H](C)[C@H](CN(C)Cc2ccc(Cl)c(Cl)c2)Oc2ccc(NC(=O)c3ccncc3)cc2CC1=O | 0.4
C[C@@H]1CN([C@H](C)CO)C(=O)c2cc(NC(=O)Cc3ccccc3)ccc2O[C@@H]1CN(C)S(=O)(=O)c1cn(C)cn1 | -0.4
C[C@@H]1CCCCO[C@H](CN(C)C(=O)C2CCCCC2)[C@H](C)CN([C@@H](C)CO)C(=O)c2cc(NS(C)(=O)=O)ccc2O1 | -0.5
COc1ccc(S(=O)(=O)N(C)C[C@H]2Oc3ccc(NS(=O)(=O)c4ccccc4)cc3CC(=O)N([C@@H](C)CO)C[C@H]2C)cc1 | -0.6
C[C@@H]1CCCCO[C@@H](CN(C)C(=O)Nc2ccccc2)[C@H](C)CN([C@H](C)CO)C(=O)c2cc(NC(=O)Nc3ccccc3)ccc2O1 | -2.3
Cc1noc(C)c1NC(=O)Nc1ccc2c(c1)C(=O)N([C@H](C)CO)C[C@H](C)[C@H](CN(C)Cc1ccc(C(F)(F)F)cc1)OCCCC[C@H](C)O2 | -0.4
Next structures follow.
SMILES | A1 apoptosis 2
C[C@@H]1CN([C@H](C)CO)C(=O)c2cc(NS(=O)(=O)c3ccccc3)ccc2O[C@@H](C)CCCCO[C@@H]1CN(C)C(=O)c1ccncc1 | 0.1
C[C@H](CO)N1C[C@H](C)[C@H](CN(C)Cc2ccc(-c3ccccc3)cc2)Oc2ccc(NS(=O)(=O)c3ccc(F)cc3)cc2C1=O | -0.5
COc1ccc(S(=O)(=O)N(C)C[C@H]2OCCCC[C@H](C)Oc3ccc(NC(=O)Nc4ccc(C(F)(F)F)cc4)cc3C(=O)N([C@H](C)CO)C[C@H]2C)cc1 | 0.1
C[C@H]1CN([C@@H](C)CO)C(=O)c2cc(NC(=O)CCN3CCOCC3)ccc2O[C@H]1CN(C)C(=O)Nc1cccc2ccccc12 | 0.2
CC(=O)Oc1ccccc1C(=O)OCO/N=[N+](\[O-])N1CCCC1 | -0.4
CC(C)NC(=O)N(C)C[C@@H]1Oc2ccc(NC(=O)Cc3ccccc3)cc2CC(=O)N([C@H](C)CO)C[C@@H]1C | -0.9
C[C@@H]1CN([C@H](C)CO)C(=O)Cc2cc(NC(=O)Nc3ccc(F)cc3)ccc2O[C@@H]1CN(C)Cc1ccc(C(F)(F)F)cc1 | 1.1
Cc1noc(C)c1NC(=O)N(C)C[C@H]1Oc2ccc(NC(=O)c3ccncc3)cc2CC(=O)N([C@@H](C)CO)C[C@H]1C | -0.5
C[C@H](CO)N1C[C@H](C)[C@H](CN(C)C(=O)Nc2ccc(F)cc2)Oc2ccc(NC(=O)C3CCCCC3)cc2CC1=O | 0.7
C[C@@H]1CCCCO[C@H](CN(C)C(=O)CCCN(C)C)[C@H](C)CN([C@@H](C)CO)C(=O)c2cc(NS(=O)(=O)c3ccc(Cl)cc3)ccc2O1 | 0.5
C[C@@H]1CCCCO[C@H](CN(C)C(=O)Nc2ccc(C(F)(F)F)cc2)[C@H](C)CN([C@@H](C)CO)C(=O)c2cc(NS(=O)(=O)c3cccs3)ccc2O1 | 0.6
